Compound activity from PubChem BioAssay.
ID4 binder: binders of human ID4 protein; hit rate 1.2% among 31,000; calls only; P47928; small molecule microarray, Flag-ID4 binding, fluorescence F/B;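 active = spot signal over background at p below 0.07 in all four prints; compounds were printed on slides so no solution concentration is given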;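 note: a binder raises fluorescence above local background on the spot; about 2 pmol printed per array spot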
Target sequence (P47928 whole entry, looked up): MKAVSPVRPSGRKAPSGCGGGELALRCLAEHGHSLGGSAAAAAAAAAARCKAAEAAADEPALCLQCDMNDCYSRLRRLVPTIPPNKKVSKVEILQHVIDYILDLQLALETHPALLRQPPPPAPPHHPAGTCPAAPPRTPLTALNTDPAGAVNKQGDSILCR
STAT3 SMM: STAT3 (human) binding; calls only; P40763; AID 624138; hit rate 0.2% among 17,000; Small molecule microarray, His-STAT3 binding, anti-His fluorescence;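 active = compounds whose four printed spots each show fluorescence over background unusually high for their array block, chance value under 7%; compounds were printed on slides so no solution concentration is given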;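 note: about 2 pmol printed per array spot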
c-Myc SMM: binders of human c-Myc; P01106; small molecule microarray, His-c-Myc binding, anti-His fluorescence; calls only; hit rate 1.5% among 17,000; AID 624141;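 active = spot fluorescence over background with P-value below 7% in all four replicate spots, showing protein binding; compounds were printed on slides so no solution concentration is given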;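 note: score is binary with 100 for all four spots passing and 0 otherwise; about 2 pmol printed per array spot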
Target sequence (P01106 whole entry, looked up): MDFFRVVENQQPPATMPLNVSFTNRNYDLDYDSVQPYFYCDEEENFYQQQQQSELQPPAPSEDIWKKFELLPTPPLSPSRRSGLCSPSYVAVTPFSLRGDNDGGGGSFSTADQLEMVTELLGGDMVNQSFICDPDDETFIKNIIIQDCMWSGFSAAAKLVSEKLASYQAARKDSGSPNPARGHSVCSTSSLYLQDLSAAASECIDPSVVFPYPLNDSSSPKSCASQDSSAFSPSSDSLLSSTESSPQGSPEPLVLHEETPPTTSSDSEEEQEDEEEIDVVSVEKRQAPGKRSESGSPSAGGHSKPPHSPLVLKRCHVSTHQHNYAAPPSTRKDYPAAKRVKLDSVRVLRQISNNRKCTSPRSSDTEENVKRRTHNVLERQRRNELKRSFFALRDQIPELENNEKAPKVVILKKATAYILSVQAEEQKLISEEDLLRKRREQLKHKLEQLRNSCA
mut p53 SMM: binders of human mutant p53. calls only. AID 624136. hit rate 0.4% among 17,000. small molecule microarray binding, anti-GST fluorescence;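 active = compounds whose four printed spots each glow above background more than chance allows, each with a p-value under 7%; compounds were printed on slides so no solution concentration is given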;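 note: about 2 pmol printed per array spot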
Calls only; i = inactive; · = not tested or not shown; + = active, no number. Some of the compounds tested; count on the stated rates, not on these rows.

SMILES	ID4 binder	STAT3 SMM	c-Myc SMM	mut p53 SMM
CNC[C@@H]1Oc2ccc(NS(=O)(=O)c3ccccc3)cc2C(=O)N([C@@H](C)CO)C[C@H]1C	+	i	i	i
C[C@H]1CN([C@@H](C)CO)C(=O)c2cc(NC(=O)CCN3CCOCC3)ccc2O[C@H]1CN(C)C(=O)Nc1ccc(C(F)(F)F)cc1	·	i	i	i
CNC[C@H]1Oc2ccc(NC(=O)CCN3CCOCC3)cc2C(=O)N([C@@H](C)CO)C[C@H]1C	·	i	i	i
C[C@@H]1CN([C@H](C)CO)C(=O)c2cc(NS(C)(=O)=O)ccc2O[C@@H](C)CCCCO[C@H]1CN(C)Cc1ccncc1	i	i	i	i
CC1(C)C[C@H]2C[C@H]3C(Br)=CC2(CO1)C(=O)[C@]31CO1	i	i	i	i
Cc1cccc(NC(=O)CSc2nnc(-c3ccc(Br)cc3)o2)c1C	i	i	i	i
C[C@@H]1CN([C@H](C)CO)C(=O)Cc2cc(NC(=O)CCN3CCOCC3)ccc2O[C@@H]1CN(C)C(=O)Nc1ccccc1	i	i	i	i
CSc1nsc(SCCN2C(=O)c3ccccc3C2=O)n1	i	i	i	i
c1ccc(-c2csc3ncnc(NCC4CCCO4)c23)cc1 (stereo not drawn)	i	i	i	i
CN(C)c1nc(Oc2ccc(OCCOc3ccccc3)nn2)nc(N(C)C)n1	i	i	i	i
CNC[C@H]1Oc2c(NC(=O)c3nc4ccccc4s3)cccc2C(=O)N([C@H](C)CO)C[C@H]1C	i	i	i	i
Cc1nc2ccccc2nc1OCC(=O)c1ccc(Cl)cc1	i	i	i	i
C[C@@H]1CCCCO[C@@H](CN(C)C(=O)C2CCCCC2)[C@@H](C)CN([C@@H](C)CO)C(=O)c2cc(NS(=O)(=O)c3cccs3)ccc2O1	i	i	i	i
Cc1noc(C)c1S(=O)(=O)N(C)C[C@@H]1Oc2ccc(NC(=O)Cc3cn(C)c4ccccc34)cc2CC(=O)N([C@H](C)CO)C[C@@H]1C	i	i	i	i
N#Cc1c(C(F)(F)F)cc(-c2ccco2)nc1SCC(=O)Nc1cccc(C(F)(F)F)c1	i	i	i	i
C[C@H]1CN([C@@H](C)CO)C(=O)c2cccc(NC(=O)c3cnccn3)c2O[C@H]1CN(C)S(=O)(=O)c1cn(C)cn1	i	i	i	i
C[C@H](CO)N1C[C@H](C)[C@@H](CN(C)C)OCCCC[C@H](C)Oc2ccc(NS(C)(=O)=O)cc2C1=O	i	i	i	i
Cc1noc(C)c1S(=O)(=O)N(C)C[C@@H]1Oc2ccc(NC(=O)Cc3cn(C)c4ccccc34)cc2CC(=O)N([C@@H](C)CO)C[C@H]1C	i	i	i	i
Cc1c(Br)c([N+](=O)[O-])nn1C(C)C(=O)N1CCOCC1 (stereo not drawn)	i	i	i	i
CC(C)NC(=O)N(C)C[C@@H]1OCCCC[C@H](C)Oc2ccc(NC(=O)CCC(F)(F)F)cc2C(=O)N([C@H](C)CO)C[C@H]1C	i	i	i	i

Given with values under each structure: 6 of the compounds above.
The line under a structure holds: ID4 binder	STAT3 SMM	c-Myc SMM	mut p53 SMM
- c1ccc(-c2csc3ncnc(NCC4CCCO4)c23)cc1 (stereo not drawn)
→ i	i	i	i
- CN(C)c1nc(Oc2ccc(OCCOc3ccccc3)nn2)nc(N(C)C)n1
→ i	i	i	i
- C[C@H]1CN([C@@H](C)CO)C(=O)c2cc(NC(=O)CCN3CCOCC3)ccc2O[C@H]1CN(C)C(=O)Nc1ccc(C(F)(F)F)cc1
→ ·	i	i	i
- Cc1cccc(NC(=O)CSc2nnc(-c3ccc(Br)cc3)o2)c1C
→ i	i	i	i
- C[C@@H]1CN([C@H](C)CO)C(=O)c2cc(NS(C)(=O)=O)ccc2O[C@@H](C)CCCCO[C@H]1CN(C)Cc1ccncc1
→ i	i	i	i
- CNC[C@H]1Oc2c(NC(=O)c3nc4ccccc4s3)cccc2C(=O)N([C@H](C)CO)C[C@H]1C
→ i	i	i	i

(next part)
SMILES	ID4 binder	STAT3 SMM	c-Myc SMM	mut p53 SMM
COc1cc(C2OC[C@@H]3[C@@H](c4cc(OC)c(O)c(OC)c4)OC[C@H]23)cc(OC)c1O (stereo partly drawn)	i	i	i	i
C[C@@H]1CN([C@H](C)CO)C(=O)Cc2cc(NC(=O)Cc3ccccc3)ccc2O[C@@H]1CN(C)C(=O)Nc1ccc(F)cc1	i	i	i	i
CNC[C@@H]1Oc2ccc(NS(=O)(=O)c3ccccc3)cc2C(=O)N([C@@H](C)CO)C[C@@H]1C	i	i	i	i
C=CCn1c(SCC(N)=O)nnc1-c1ccco1	i	i	i	i
COc1ccc(CN(C)C[C@H]2Oc3ccc(NC(=O)Nc4ccc5c(c4)OCO5)cc3CC(=O)N([C@H](C)CO)C[C@H]2C)cc1	i	i	i	i
CS(=O)(=O)NCCCNc1ccc(C(F)(F)F)cc1[N+](=O)[O-]	i	i	i	i
O=C1c2ccc(O)cc2C(=O)c2ccc(O)cc21	i	i	i	i
C[C@H]1C=C(C(=O)N2CCN(Cc3ccc4c(c3)OCO4)CC2)O[C@@H](OCc2ccc(CO)cc2)C1	i	i	i	i
CCC1(O)CC2CN(CCc3c([nH]c4ccccc34)C(C(=O)OC)(c3cc4c(cc3OC)N(C)C3C(O)(C(=O)OC)C(C(=O)OC)C5(CC)C=CCN6CCC43C65)C2)C1 (stereo not drawn)	i	i	i	i
C[C@H](CO)N1C[C@H](C)[C@H](CN(C)S(=O)(=O)c2ccc(F)cc2)Oc2ncc(C#CC(C)(C)O)cc2C1=O	i	i	i	i
Cc1noc(C)c1S(=O)(=O)Nc1ccc2c(c1)C(=O)N([C@H](C)CO)C[C@@H](C)[C@@H](CN(C)C(=O)Nc1ccc(F)cc1)O2	i	i	i	i
C[C@@H]1CCCCO[C@H](CN(C)Cc2ccncc2)[C@H](C)CN([C@H](C)CO)C(=O)c2cc(NC(=O)Nc3cccc4ccccc34)ccc2O1	·	i	i	i
C[C@H](CO)N1C[C@H](C)[C@@H](CN(C)C(=O)NC2CCCCC2)Oc2ccc(NC(=O)Nc3ccc4c(c3)OCO4)cc2CC1=O	i	i	i	i
O=C(CSc1nc2ccccc2c(=O)[nH]1)NCCO	i	i	i	i
COc1ccc(C)cc1S(=O)(=O)N(C)CC(=O)Nc1ccccc1SC	i	i	i	i
C[C@H](CO)N1C[C@H](C)[C@H](CN(C)C(=O)Cc2ccccc2)OCCCC[C@H](C)Oc2ccc(NC(=O)Nc3ccccc3)cc2C1=O	i	i	i	i
CNC[C@@H]1Oc2ncc(-c3cc4ccccc4o3)cc2C(=O)N([C@H](C)CO)C[C@@H]1C	i	i	i	i
COc1ccc(C2(CNC(=O)c3ccc(OC)c([N+](=O)[O-])c3)CCCC2)cc1OC	i	i	i	i
COC(=O)c1c2oc(c1C(=O)OC)C(=O)N[C@H](Cc1ccccc1)Cn1cc(nn1)CNC(=O)[C@H](Cc1ccccc1)NC(=O)N[C@@H](CO)CC2	+	i	i	i
C[C@H](CO)N1C[C@H](C)[C@H](CN(C)Cc2ccncc2)OCCCC[C@H](C)Oc2ccc(NC(=O)Nc3ccccc3)cc2C1=O	i	+	i	+
C[C@@H]1CN([C@@H](C)CO)C(=O)c2cccc(NC(=O)C3CCOCC3)c2O[C@@H]1CN(C)Cc1ccccc1	i	i	i	i
Cc1noc(C)c1NC(=O)N(C)C[C@@H]1Oc2ccc(NC(=O)Nc3cccc4ccccc34)cc2C(=O)N([C@@H](C)CO)C[C@H]1C	i	i	i	i
O=S(=O)(c1cccc(NC(=S)NCc2ccco2)c1)N1CCOCC1	i	i	i	i
C[C@H](CO)N1C[C@H](C)[C@@H](CN(C)C(=O)NC2CCCCC2)Oc2c(NC(=O)c3cnccn3)cccc2C1=O	i	i	i	i
C[C@@H]1CCCCO[C@@H](CN(C)C(=O)C2CCCCC2)[C@@H](C)CN([C@@H](C)CO)C(=O)c2cc(NC(=O)Nc3ccccc3)ccc2O1	i	i	i	i
CC(C)NC(=O)Nc1cccc2c1O[C@H](CN(C)Cc1ccc(Cl)c(Cl)c1)[C@H](C)CN([C@H](C)CO)C2=O	i	i	i	i
COc1cccc(C(=O)COc2cccc(NC(=O)c3ccco3)c2)c1	i	i	i	i
C[C@@H]1CN([C@@H](C)CO)C(=O)c2cccc(NC(=O)NC3CCCCC3)c2O[C@H]1CN(C)C(=O)NC1CCCCC1	i	i	i	i
COc1ccc(CCNc2ncnc3nc[nH]c23)cc1OC	i	i	i	i
C[C@@H]1CCCCO[C@H](CN(C)S(=O)(=O)c2ccc(F)cc2)[C@H](C)CN([C@@H](C)CO)C(=O)c2cc(NC(=O)c3ccncc3)ccc2O1	i	i	i	i
C[C@H]1CCCCO[C@@H](CN(C)C(=O)C2CCCCC2)[C@@H](C)CN([C@@H](C)CO)C(=O)c2cc(NC(=O)Nc3ccccc3)ccc2O1	i	i	+	i
CC(C)NC(=O)N(C)C[C@@H]1OCCCC[C@@H](C)Oc2ccc(NS(=O)(=O)c3ccccc3)cc2C(=O)N([C@H](C)CO)C[C@H]1C	i	i	i	i
C[C@@H]1CN([C@H](C)CO)C(=O)c2cccc(NS(=O)(=O)c3ccc(F)cc3)c2O[C@H]1CN(C)C(=O)NC1CCCCC1	i	i	i	i
Cn1c(SCC(=O)Nc2ccccc2[N+](=O)[O-])nc2ccccc2c1=O	i	i	i	i
C[C@@H]1O[C@@H](OC[C@H]2O[C@@H](c3c(O)cc4oc(-c5ccc(O)c(O)c5)cc(=O)c4c3O)[C@H](O)[C@@H](O)[C@@H]2O)[C@H](O)[C@H](O)[C@H]1O	i	i	i	i
Oc1c(C(Nc2cccnc2)c2ccc(Cl)cc2)ccc2cccnc12 (stereo not drawn)	i	i	i	i
C[C@H]1CN([C@@H](C)CO)C(=O)c2cc(NC(=O)Cn3cnnn3)ccc2O[C@H]1CN(C)C(=O)NC1CCCCC1	i	i	i	i
C/C=C1\C(O[C@@H]2O[C@H](CO)[C@@H](O)[C@H](O)[C@H]2O)OC=C(C(=O)OC)C1CC(=O)OC[C@H]1O[C@@H](OCCc2ccc(O)cc2)[C@H](OC(=O)CC2C(C(=O)OC)=COC(O[C@@H]3O[C@H](CO)[C@@H](O)[C@H](O)[C@H]3O)/C2=C\C)[C@@H](O)[C@@H]1O (stereo partly drawn)	i	i	i	i
CNC[C@@H]1Oc2ccc(NC(=O)Nc3ccccc3)cc2CC(=O)N([C@H](C)CO)C[C@H]1C	i	i	i	i
Cc1noc(C)c1NC(=O)N(C)C[C@@H]1Oc2ccc(NS(=O)(=O)c3cn(C)cn3)cc2C(=O)N([C@H](C)CO)C[C@H]1C	i	i	i	i
C[C@@H]1CN([C@@H](C)CO)C(=O)c2cccc(NC(=O)Nc3ccc(C(F)(F)F)cc3)c2O[C@@H]1CN(C)C(=O)Nc1cccc2ccccc12	·	i	i	i
CC1(C)CC(=O)c2ccc(O)cc2O1	·	i	i	i
C[C@@H]1CN([C@@H](C)CO)C(=O)c2cccc(NC(=O)Nc3ccc(F)cc3)c2O[C@H]1CN(C)C(=O)Nc1ccc(F)cc1	i	i	i	i
C[C@@H]1CCCCO[C@@H](CN(C)Cc2ccccc2)[C@H](C)CN([C@H](C)CO)C(=O)c2cc(NS(=O)(=O)c3cccs3)ccc2O1	i	i	i	i
Cc1noc(C)c1NC(=O)Nc1ccc2c(c1)CC(=O)N([C@@H](C)CO)C[C@H](C)[C@@H](CN(C)Cc1ccncc1)O2	i	i	i	i
C[C@@H]1CCCCO[C@H](CN(C)C)[C@@H](C)CN([C@@H](C)CO)C(=O)c2cc(NC(=O)C3CCCCC3)ccc2O1	i	i	i	i
C[C@@H]1CCCCO[C@H](CN(C)Cc2ccccc2)[C@H](C)CN([C@H](C)CO)C(=O)c2cc(NS(=O)(=O)c3cccs3)ccc2O1	i	i	i	i
O=C(C1=C[C@H](c2ccc3c(c2)Cc2ccccc2-3)C[C@H](OCc2ccc(CO)cc2)O1)N1CCCCC1	·	i	i	i
CNC[C@H]1Oc2ccc(NC(=O)C3CC3)cc2C(=O)N([C@@H](C)CO)C[C@@H]1C	i	i	i	i
Cc1noc(C)c1NC(=O)N(C)C[C@@H]1Oc2c(NC(=O)c3ccc(-c4nccs4)cc3)cccc2C(=O)N([C@@H](C)CO)C[C@H]1C	i	i	i	i
O=C(CNS(=O)(=O)c1cccc(C(F)(F)F)c1)Nc1ccccc1F	i	i	i	i
Cn1c(=O)c2c(nc(NCc3cccnc3)n2Cc2ccc(F)cc2)n(C)c1=O	i	i	i	i
C[C@H](CO)N1C[C@H](C)[C@H](CN(C)Cc2ccc(Cl)c(Cl)c2)Oc2ccc(NC(=O)Cn3cnnn3)cc2C1=O	i	i	i	i
C[C@@H]1CN([C@H](C)CO)C(=O)c2cccc(NS(=O)(=O)c3ccc(Cl)cc3)c2O[C@@H]1CN(C)S(=O)(=O)c1cn(C)cn1	i	i	i	i
CCOC(=O)c1c(NC(=O)c2cccc(S(=O)(=O)N3CCCCCC3)c2)sc2c1CCC2	i	i	i	i
C[C@H]1CN([C@@H](C)CO)C(=O)Cc2cc(NS(=O)(=O)c3cccs3)ccc2O[C@@H]1CN(C)S(=O)(=O)c1ccc(Cl)cc1	i	i	i	i
C[C@@H]1CN([C@H](C)CO)C(=O)CCCn2nncc2CO[C@H]1CN(C)C(=O)Nc1ccccc1F	i	i	i	i
